VACV E9 pol inh – blocks vaccinia virus processive DNA synthesis | in vitro processive DNA synthesis, absorbance read-out; hits give low values; some inactives read as strong as hits | normalized absorbance, % (test concentration not listed) | 46,000 compounds, 0.94% hits | AID 493162;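 active = replicate mean up to 90% and picked by the depositor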;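 also: 100% = median of the test wells of a plate; 100 nL library stock went into each well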
An asterisk follows results filed as active. Only part of the results is shown, so the mix of outcomes need not match the whole.

SMILES | VACV E9 pol inh
O=c1c(-c2ccccc2)[n+]([O-])c2ccccc2n1OCc1ccccc1 | 100
CC(C)(C)c1csc(=Nc2ccc(F)cc2F)o1 | 93
CC(=O)N1CC(C)Sc2cc(S(=O)(=O)N3CCCCC3)ccc21 (centres undefined) | 100
CC1(C)CC(=O)c2cc(OCC(=O)NCc3ccccc3)ccc2O1 | 100
CC1Sc2cc(S(=O)(=O)NCCc3ccccc3)ccc2NC1=O (centres undefined) | 98
COc1ccc(/C(O)=C/c2nc3ccc(C(=O)NCCc4ccccc4)cc3[nH]c2=O)cc1 | 104
CC(=O)N1CCc2ccccc2C1CC(=O)O (centres undefined) | 92
Nc1nc(-c2ccc(Oc3ccccc3)cc2)cs1 | 91
c1ccc(-c2cnc3n2CCCCC3)cc1 | 100
CCN1C(=O)c2cccc3c(S(=O)(=O)N(C(=O)c4ccncc4)c4ccc(OC)cc4)ccc1c23 | 99
COC(=O)c1cc(-c2ccccn2)no1 | 104
Cc1nc(N)[nH]c(=O)c1CCC(C)C | 96
CN(C)c1ccc(/C=C(\C#N)S(=O)(=O)c2ccccc2)cc1C#N | 101
COc1cc(/C=C\C(=O)NCc2ccc3c(c2)cc(C)n3C)cc(OC)c1OC | 90
Cc1cc(=O)oc(C)c1C(=O)Nc1ccccc1C(=O)N1CCCCC1 | 100
O=C(c1ccccc1)c1nn(-c2ccc(Cl)cc2)ccc1=O | 99
O=C(Nc1ccc(-n2cccc2)cc1)c1ccc(Cl)cc1 | 114
Cc1nc(NCc2ccco2)c2c3c(sc2n1)CCC3 | 103
Cc1ccc(OC(=O)OCSc2nn[nH]n2)cc1 | 94
CCOc1cccc(NC(=O)c2cc(=O)c3ccccc3o2)c1 | 100
Cc1cn(CC(=O)NCCN)c(=O)[nH]c1=O | 100
C=CCSC1=C(C#N)C(c2ccccc2Cl)C(C(=O)c2cccs2)C(O)(C(F)(F)F)N1 (centres undefined) | 87
CC(=O)Nc1ccc(C(=O)OCC(=O)Nc2ccc3ccccc3c2)cc1 | 74
NC(=O)COc1ncn(-c2ccccc2)n1 | 124
COC(=O)c1ccc(C2OCCCO2)cc1 | 99

The final 12 records of the part before are carried over, then new ones follow:
SMILES | VACV E9 pol inh
COc1cc(/C=C\C(=O)NCc2ccc3c(c2)cc(C)n3C)cc(OC)c1OC | 90
Cc1cc(=O)oc(C)c1C(=O)Nc1ccccc1C(=O)N1CCCCC1 | 100
O=C(c1ccccc1)c1nn(-c2ccc(Cl)cc2)ccc1=O | 99
O=C(Nc1ccc(-n2cccc2)cc1)c1ccc(Cl)cc1 | 114
Cc1nc(NCc2ccco2)c2c3c(sc2n1)CCC3 | 103
Cc1ccc(OC(=O)OCSc2nn[nH]n2)cc1 | 94
CCOc1cccc(NC(=O)c2cc(=O)c3ccccc3o2)c1 | 100
Cc1cn(CC(=O)NCCN)c(=O)[nH]c1=O | 100
C=CCSC1=C(C#N)C(c2ccccc2Cl)C(C(=O)c2cccs2)C(O)(C(F)(F)F)N1 (centres undefined) | 87
CC(=O)Nc1ccc(C(=O)OCC(=O)Nc2ccc3ccccc3c2)cc1 | 74
NC(=O)COc1ncn(-c2ccccc2)n1 | 124
COC(=O)c1ccc(C2OCCCO2)cc1 | 99
CN1CCN(C(=O)CCN2C(=O)/C(=C/c3ccc(Cl)cc3)SC2=S)CC1 | 100
CC(=O)Nc1nc(C2CCCCC2)cs1 | 95
O=C(O)C1CCCN1Cc1c[nH]c2ccccc12 (centres undefined) | 106
COc1ccc(-c2noc(CC(=O)N(C(C)C)C3CCCCC3)n2)cc1 | 106
Cc1oc(-c2ccc(C(=O)O)cc2)nc1CN1CCCCC1 | 102
Clc1ccc(OCc2nc3ccccc3[nH]2)c(Cl)c1 | 96
NC(=O)c1c(NC(=O)c2ccccc2)sc2c1CCC2 | 103
Cc1ccn(C(=O)c2ccc(NC(=O)C3CC3)cc2)n1 | 95
CC1=CC(=O)N(c2ccc(OC(F)(F)F)cc2)C1=O | 82
O=S1(=O)CC(N2CCCCC2)C(N2CCCCC2)C1 (centres undefined) | 105
CCc1ccc(C2C3=C(CCCC3=O)Nc3c2c(=O)n(C)c(=O)n3C)cc1 (centres undefined) | 100
Cc1nnc(SC(c2ccccc2)c2ccccc2)s1 | 98
O=C(O)c1cc(=O)c2c(OCC(O)COc3cccc4oc(C(=O)O)cc(=O)c34)cccc2o1 | 100
COC(=O)c1ccc(N2C(=O)CCC2=O)cc1 | 100
CCOC(=O)CCc1c(C)c(C#N)c2nc3ccccc3n2c1Cl | 100
CC(=O)OCC(=O)[C@H]1CCC2C3CCC4=CC(=O)CC[C@]4(C)C3CC[C@@]21C (some centres undefined) | 101
CNC(=O)Nc1ccc(C(C)(C)C)cc1Br | 106
O=C(Oc1ccc2oc(=O)sc2c1)c1ccc(Br)cc1 | 101
OCc1nc2ccccc2n1CC1CC1(Cl)Cl (centres undefined) | 95
O=C(CS(=O)(=O)c1ccc(C(F)(F)F)cc1Cl)Nc1ccc(F)cc1 | 101
C=CCN1C(=O)NC2(CCCCC2)C1=O | 98
CCN(CCCNc1nc(-c2cc(OC)ccc2OC)no1)c1ccccc1 | 93
N=C1SCC(=O)N1C(=O)c1ccccc1 | 101
O=C(O)c1ccccc1C(=O)N1CCN(c2ncccn2)CC1 | 106
O=c1c(-c2ccc(O)cc2)coc2cc(O)ccc12 | 100
SMILES | VACV E9 pol inh
CCC(=O)OC1CCC2C3CCC4CC(=O)CCC4(C)C3CCC12C (centres undefined) | 99
Oc1c(C=C2N=c3ccccc3=N2)sc(=S)n1-c1ccc(F)cc1 | 97
CNC(=O)CCC(=O)N1CCOc2ccc(C)cc21 | 103
Cc1ccc(NC(=O)C(C)SC2=NCCS2)cc1 (centres undefined) | 100
Cc1ccc(S(=O)(=O)CNC(=O)C(C)(C)C)cc1 | 104
Cc1cccc(C)c1NC(=O)CCCSc1nnnn1-c1ccccc1 | 100
CC(=O)OCCn1c(=O)[nH]c(=O)c2nsnc21 | 101
Cc1cc(C)n(-c2nc3ccccc3nc2N2CCN(S(=O)(=O)c3cccs3)CC2)n1 | 99
CCOC(=O)c1c(C)[nH]c2ccc(O)cc12 | 105
NNc1cccc(Cl)n1 | 78*
CCn1c(C(C)NC(C)=O)nc2ccccc21 (centres undefined) | 91
CCOC(=O)c1cnc(SCSc2nc3ccccc3s2)nc1N | 104
Cc1cccc(-n2ncc3c(NCCc4ccccc4)ncnc32)c1 | 100
O=C(Sc1nnnn1-c1ccccc1)c1cccc(Cl)c1 | 97
CN(C)S(=O)(=O)N(C)c1ccccc1 | 102
O=C(COc1cccc(Cl)c1)Nc1ccc(OC(F)(F)F)cc1 | 99
O=S(=O)(Nc1ccc(O)c(-c2c(O)ccc3ccccc23)c1)c1cccs1 | 102
O=S1(=O)C=CC(N2CCCCC2)C1 (centres undefined) | 96
CCOc1ccc(/C=C/C(=O)Nc2nc(-c3ccc(C)cc3)c(C)s2)cc1 | 100
Nc1nc2c(-c3ccccc3)c(C(F)(F)F)sc2s1 | 99
COc1ccc2cc3cc(C(=O)NCCCN4CCCCCC4)oc3nc2c1 | 63*
C=CCc1ccccc1OCC(O)CN1CCN(CC)CC1 (centres undefined) | 113
Cc1cc(C)cc(NC(=O)Nc2ccccc2C(=O)Nc2cc(C)cc(C)c2)c1 | 101
N#CC(C(=O)Nc1cccc(C(F)(F)F)c1)=C1CCCCCC1 | 101
O=C(NCC1CCCO1)c1cc2ccccc2nc1Cl (centres undefined) | 83
SMILES | VACV E9 pol inh
Cc1ccc(S(=O)(=O)c2ccc(-n3nc(C)cc3N)cc2)cc1 | 92
O=C(O)C1CC(=O)N(Cc2ccccc2)C1c1ccccc1 (centres undefined) | 101
CCN(C(=O)Cn1cc(C(=O)C2CC2)c2ccccc21)c1ccccc1 | 98
O=C(C[n+]1cccc(NC(=O)c2ccccc2)c1)c1ccccc1 | 99
COc1cc(N=CC2=C(O)CC(C)(C)CC2=O)c(OC)cc1Cl | 102
O=C1NC(=O)C2(CCC(C(=O)O)C2)N1 (centres undefined) | 105
CCN1C(=O)Cc2ccccc21 | 84
Cc1ccc(SCC(=O)Nc2cccnc2)cc1 | 89
CC1CCC(NC(=O)C2CCN(c3nnc(-n4cccc4)s3)CC2)CC1 (centres undefined) | 86
CC1(O)CC(C(F)(F)OC(F)(F)F)=NN1S(=O)(=O)c1ccccc1 (centres undefined) | 100
Cc1ccc(C(=O)Nc2sc(CC#N)nc2-c2ccc(C)cc2)cc1 | 92
O=c1[nH]c2ccccc2nc1/C=C(\O)c1ccccc1 | 102
NNC(=O)Cn1c2ccccc2c2ccccc21 | 105
Cc1cccc(NS(=O)(=O)c2c(C)noc2C)c1 | 103
O=S(=O)(c1ccc2ccccc2c1)N1CCCc2ccccc21 | 101
c1cc(NC2=NCCCCC2)ccc1NC1=NCCCCC1 | 101
Cc1ccc(S(=O)(=O)NC(Cc2ccccc2)C(=O)O)cc1C (centres undefined) | 100
CC1(C)Nc2ccccc2C(=O)N1NS(=O)(=O)c1ccccc1 | 100
CC1(C)COC(c2sccc2C(=O)O)=N1 | 101
Cc1cc(C)n2nc3nc(N4CCOCC4)nc(-c4ccc(C(C)C)cc4)c3c2n1 | 100
Clc1nc2sccn2c1/C=N/n1cnc2ccccc21 | 99
CC1=CC(C)(C)CC(=S)N1c1cccc(F)c1 | 100
CC1=C(C(=O)Nc2cccc(C)n2)C(c2ccsc2)C2=C(CCCC2=O)N1 (centres undefined) | 99
CN(C)C(=O)C[n+]1ccc(/C=N/O)cc1 | 100
CCC1=Nc2cc(C(=O)N3CCc4ccccc43)ccc2Sc2ccccc21 | 108
SMILES | VACV E9 pol inh
Cc1cc(C(=O)OCC(=O)N(C)c2ccccc2)c(C)o1 | 78
O=C(NCCCc1nc2ccccc2[nH]1)c1ccc(F)cc1 | 103
COc1ccc(CCNC(=O)CCn2c(=O)oc3ccccc32)cc1 | 99
CCOC(=O)N1CCN(C(=O)c2cc3c(ccc4ccccc43)oc2=O)CC1 | 101
CCCCC/C=C\CC1OC1CCCCCCCC(=O)O (centres undefined) | 98
CCCCCCOc1ccccc1C(N)=O | 101
O=C(CSC(=O)c1ccccc1)NC1CCCCC1 | 102
C=CCN(CC=C)S(=O)(=O)c1ccc(C(=O)N2CCCCC2)cc1 | 99
O=C(Cn1ccc2ccccc2c1=O)NC1CCCCC1 | 105
Cc1ccc2[nH]c(=O)c3cc(C(=O)NCCC(C)C)sc3c2c1 | 101
Cn1c(Cc2nn(C)c(=O)c3ccccc23)nnc1SCC(=O)c1ccc(Cl)cc1Cl | 102
CCc1c(C(=O)OC)nnn1-c1nonc1N | 101
O=C(c1ccc(CNS(=O)(=O)c2ccc(Br)cc2)cc1)N1CCCC1 | 103
Cc1cc2c(cc1C)NC(CC(=O)NC(C)c1ccccc1)C(=O)N2 (centres undefined) | 102
CCN(CC)S(=O)(=O)c1ccc(NC(=O)c2noc3c2COc2ccccc2-3)cc1 | 111
CCCc1cc(=O)oc2cc(OC(=O)/C=C/c3cccs3)ccc12 | 96
O=C(CCn1c(=S)[nH]c2cc3c(cc2c1=O)OCO3)NC1CCCC1 | 99
O=C(Nc1ccc(OC(F)(F)F)cc1)OC1CN(C(c2ccccc2)c2ccccc2)C1 | 102
CS(=O)Cc1cc(Cl)nc(-c2ccncc2)n1 (centres undefined) | 100
Cc1nc2c(C(=O)NC3CC3)c[nH]n2c(=O)c1Cc1ccccc1F | 88
CCN(CC)C(=O)C1C(=O)NC23CCCCC2C1c1ccccc1O3 (centres undefined) | 113
Cc1cc(NC(=O)CCCC(=O)c2ccccc2)n[nH]1 | 95
O=C1C(=Cc2ccco2)C(=O)c2ccccc21 | 99
Cc1ccc2nc(-c3ccc(-n4ccc(=O)cc4)cc3)sc2c1 | 97
CCSc1nc2sc3c(c2c(=O)n1-c1ccccc1)CCN(C(C)=O)C3 | 96
SMILES | VACV E9 pol inh
Cc1c(Cl)cccc1NC(=O)c1cc(-c2ccco2)nc2ccccc12 | 113
Cc1cc(C)c2c(N)c(C(=O)NC3CCCC3)sc2n1 | 99
COC(=O)c1sccc1NC(=O)Cc1noc2ccc(C)cc12 | 100
COC(=O)c1sc(Nc2ccccc2)nc1C | 101
COC(=O)C1=CN(Cc2ccc(Cl)cc2)C=C(C(=O)OC)C1c1cccs1 | 101
Cc1cccc(NC(=O)CN2C(=O)CSC(C)C2=O)c1 (centres undefined) | 104
CC(C)CCNC(=O)c1ccc(CSc2nc3ccncc3n2Cc2ccccc2)cc1 | 105
NC(=O)CSc1cn(CC(=O)N2CCOCC2)c2ccccc12 | 102
O=C(NC(Nc1ccccc1)(C(F)(F)F)C(F)(F)F)c1ccccc1 | 90
O=c1[nH]c(-c2ccc(Cl)cc2)nc2ccc(N3CCCC3)cc12 | 92
Cc1ccc2oc(-c3ccccc3)c(C(=O)O)c(=O)c2c1 | 87
CC1(C)CC(=O)c2cc(C(=O)N3CC[N+](C)(C)CC3)c(=O)n(-c3ccc(Cl)cc3)c2C1 | 99
CCOc1cccc(/C=N/c2nnc(SC)s2)c1O | 99
O=C(O)Cc1csc2nc(-c3ccccc3)cn12 | 98
Cc1cc(C(=O)OCC(=O)N2C(C)CCCC2C)c2ccccc2n1 (centres undefined) | 106
CN1CCN(c2ccccc2NC(=O)c2cc3c(s2)-c2ccccc2OC3)CC1 | 81
O=C(Cc1ccccc1)OCc1csc(-c2ccccc2)n1 | 89
O=C(O)COc1ccccc1/C=C1/SC(=S)N(c2cccnc2)C1=O | 98
Cc1cc(/N=C\N(C)C)n2c(nc3ccccc32)c1C#N | 99
O=C(c1cc(F)cc2c1OCOC2)N1CCN(c2ccc(F)cc2)CC1 | 105
O=C(O)COc1ccc2c(-c3ccccc3)cc(=O)oc2c1 | 102
COc1ccccc1C(C1=C(OC(C)=O)COC1=O)c1cc2c(cc1OC(C)=O)OCO2 (centres undefined) | 101
Cc1ccc(=O)n(Cc2ccccc2)n1 | 98

2 consecutive entries from above, quoted:
SMILES | VACV E9 pol inh
O=c1c(-c2ccccc2)[n+]([O-])c2ccccc2n1OCc1ccccc1 | 100
CC(C)(C)c1csc(=Nc2ccc(F)cc2F)o1 | 93

A few values from the list.
For VACV E9 pol inh, CC(=O)Nc1ccc(C(=O)OCC(=O)Nc2ccc3ccccc3c2)cc1 has 74
For VACV E9 pol inh, CC(C)CCNC(=O)c1ccc(CSc2nc3ccncc3n2Cc2ccccc2)cc1 has 105
For VACV E9 pol inh, Cc1ccn(C(=O)c2ccc(NC(=O)C3CC3)cc2)n1 has 95
For VACV E9 pol inh, Cc1cc2c(cc1C)NC(CC(=O)NC(C)c1ccccc1)C(=O)N2 (centres undefined) has 102

Bioassay records from PubChem.
